Screens (PubChem BioAssay)
PINK1 expr mod – A Quantitative High throughput Screen to Identify Chemical Modulators of PINK1 Expression. 410,000 tested, 0.2% active. Potency, µM (top dose mostly 76.6 µM), inactives show at the highest dose activation (PINK1 increase), usual class: activators. PINK1 immunofluorescence, high-content cytometry, 24 h; active = well fitted activation curve with a large enough effect; inconclusive = small, poorly fitted or top-dose-only effect; inactive = flat fitted curve, though single readings scatter; cell line not stated here;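 also: potency is read from the fitted curve at half-maximal effect; % of control where 0% means no effect; nearly all actives have a fitted effect of over 65% in size; a mitochondrial uncoupler was the plate control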
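Stable cell line treated 24 h with compounds at 5 concentrations (CCCP controls), then fixed and immunostained for PINK1 plus nuclear and cell stains; PINK1 immunofluorescence quantified by laser-scanning microplate cytometry.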
TRPML1 ag – qHTS for Agonists of the Human Mucolipin Transient Receptor Potential 1 (TRPML1); AID 624414, 2012; Mucolipin-1 (Homo sapiens), Q9GZU1; 410,000 tested, 0.12% active; activation, % (concentration not given with the values); TRPML1-expressing cells, Ca2+ dye fluorescence, FDSS; host cell line not named in the record; reference of the full effect not given here; in the data active = activation above about 50%; inconclusive = about 30% to 50%; inactive = below about 30%; also: 0% is about no effect; the text of the record puts the active cut at 80%
Target sequence (Q9GZU1 whole entry, looked up): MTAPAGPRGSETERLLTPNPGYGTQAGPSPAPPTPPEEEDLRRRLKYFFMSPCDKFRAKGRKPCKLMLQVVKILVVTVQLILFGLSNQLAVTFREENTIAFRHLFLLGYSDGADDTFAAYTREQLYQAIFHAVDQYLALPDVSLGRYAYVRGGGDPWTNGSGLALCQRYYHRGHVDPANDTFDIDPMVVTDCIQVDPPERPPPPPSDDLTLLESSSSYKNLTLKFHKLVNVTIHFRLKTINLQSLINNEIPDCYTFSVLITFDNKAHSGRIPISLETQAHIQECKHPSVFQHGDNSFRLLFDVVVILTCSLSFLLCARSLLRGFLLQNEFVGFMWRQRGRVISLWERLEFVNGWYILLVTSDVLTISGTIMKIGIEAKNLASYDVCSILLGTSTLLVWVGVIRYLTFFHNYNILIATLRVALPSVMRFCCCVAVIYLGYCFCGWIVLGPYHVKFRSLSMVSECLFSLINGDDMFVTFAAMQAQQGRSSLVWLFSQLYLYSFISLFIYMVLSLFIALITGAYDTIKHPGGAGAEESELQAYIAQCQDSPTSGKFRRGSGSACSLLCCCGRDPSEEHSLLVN
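Kinetic FDSS Ca2+ read in Tet-induced TRPML1-DL cells (ABD Ca8 dye plus quencher, 45-90 min RT loading): baseline, then compound, then 110 s agonist window; EC80 agonist 54-4 at 4uM final added afterwards for a 110 s antagonist window.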
CtBP-E1A blk – qHTS Assay for Inhibitors of the CtBP/E1A Interaction; AlphaScreen GST-E1A/His-CtBP binding, 1536-well; hits give low values; control for the full effect not named in the record; activity change, % (no concentration beside the values); 340,000 tested, 0.49% active; in the data active means activity change below about -65%; inconclusive means about -30% to -65%; inactive means above about -30%; also: % is scaled to controls: 0 for no effect and ±100 for the full control effect; compound concentration not given in the record
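Homogeneous bead-based format: GST-tagged E1A captured on glutathione donor beads, His-tagged CtBP on nickel acceptor beads; compounds precede bead addition by 2 h at 37 °C.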
TRPML1 inh – qHTS for Inhibitors of the Human Mucolipin Transient Receptor Potential 1 (TRPML1); activity change, negative = inhibition, % (test concentration not listed); TRPML1-inducible cells, Ca2+ dye fluorescence, FDSS; hits give low values; inhibition of EC80 agonist-evoked calcium signal; 390,000 tested, 0.02% active; in the data active means activity change below about -50%; inconclusive means about -30% to -50%; inactive means above about -30%;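 also: stimulus is agonist 54-4 at its EC80 concentration; % is scaled to controls: 0 for no effect and ±100 for the full control effect; compound concentration not given in the record; the text of the record puts the active cut at -80%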
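Calcium fluorescence in TRPML1-DL cells induced overnight with Tet: a 110 s read after compound pin addition, then a 110 s antagonist read after challenge with 54-4 at 4 uM final (EC80).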
Six1-Eya2 inh – qHTS Assay for Inhibitors of the Six1/Eya2 Interaction. AlphaScreen GST-Six1/His-Eya2 binding, biochemical; hits give low values; control for the full effect not named in the record. 360,000 tested, 0.56% active. activity change, % (test concentration not listed). AID 651725, 2012. Homeobox protein SIX1 (Homo sapiens) + Protein phosphatase EYA2 (Homo sapiens), …; in the data active = activity change below about -65%; inconclusive = about -30% to -65%; inactive = above about -30%; also: % is scaled to controls: 0 for no effect and ±100 for the full control effect; compound concentration not given in the record
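AlphaScreen with GST-Six1 and His-Eya2 (5X mix: 250 nM and 500 nM), glutathione donor and nickel acceptor beads; buffer 50 mM Tris pH 8.0, 300 mM NaCl, 1 mM TCEP; 1 h at 37 C in the dark.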
D2 agonist – Beta-Arrestin HTS for Positive Allosteric Modulators of the Human D2 Dopamine Receptor: Agonists. DiscoveRx PathHunter D2 beta-arrestin, luminescence, 90 min; 100% = 57 uM dopamine signal. activation, % (test concentration not listed). 360,000 tested, 0.084% active. AID 624465, 2012; in the data active = activation above about 40%; inconclusive = about 15% to 40%; inactive = below about 15%; also: compound concentration not given in the record; the text of the record calls up to 30% inactive
Target sequence (P14416 whole entry, looked up): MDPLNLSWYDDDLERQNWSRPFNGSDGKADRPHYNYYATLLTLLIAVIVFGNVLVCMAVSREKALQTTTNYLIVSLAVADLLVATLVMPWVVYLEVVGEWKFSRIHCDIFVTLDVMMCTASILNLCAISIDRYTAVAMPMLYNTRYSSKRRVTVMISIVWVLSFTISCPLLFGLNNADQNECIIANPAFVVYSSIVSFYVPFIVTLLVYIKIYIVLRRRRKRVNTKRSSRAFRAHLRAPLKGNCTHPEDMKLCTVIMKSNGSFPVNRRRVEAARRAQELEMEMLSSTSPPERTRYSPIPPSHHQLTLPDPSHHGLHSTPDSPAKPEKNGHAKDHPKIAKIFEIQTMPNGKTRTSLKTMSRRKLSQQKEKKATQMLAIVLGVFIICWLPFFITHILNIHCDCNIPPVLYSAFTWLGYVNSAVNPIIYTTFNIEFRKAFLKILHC
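Agonist mode: compounds alone added to overnight-plated D2 PathHunter cells for 90 min at 37 C, with 57 uM final dopamine (EC100) defining full response. Beta-arrestin recruitment detected by chemiluminescent reagent, read after 1 h at ambient temperature.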
An asterisk follows results filed as active; u = inconclusive; x = no result given; & = joins results of further samples; [ ] = remark or other dose.

SMILES	PINK1 expr mod	TRPML1 ag	CtBP-E1A blk	TRPML1 inh	Six1-Eya2 inh	D2 agonist
Cn1cc(S(=O)(=O)N2CCC3(CC2)OCCO3)c(=O)n(C)c1=O	-0.1%	0.1	3	6	1	0.9
COc1ccccc1NC(=O)CN1CCN(c2ccc(F)cc2)CC1	0.9%	0.2	0	-3	-4	4.1
COC(c1ccccc1)c1nnc(CCC(=O)N2CCN(C3CCCC3)CC2)o1 (stereo not given)	2.5%	-0.2	-7	8	7	-2.2
CCOc1ccccc1NC(=O)NC(=O)N(C)S(C)(=O)=O	1.8%	0.3	x	6	13	-2.3
CC1CCCN(CC(=O)Nc2cc(Cl)ccc2Oc2ccccc2)C1 (stereo not given)	u	2.1	21	3	15	-7.5
N#Cc1cccnc1N1CCN(C(=O)c2cccc3c2C(=O)c2ccc(-c4ccc(Cl)c(C(F)(F)F)c4)cc2S3(=O)=O)CC1	0.6%	-0.2	5	-8	8	-0.9
CC1(C(=O)NS(=O)(=O)c2cccc(C#N)c2)CCN1C(=O)C1CCCCC1 (stereo not given)	1.6%	-0.5	2	x	-1	-6.0
O=C(c1cccc(S(=O)(=O)N2CCOCC2)c1)N(CCO)Cc1ccccc1	-0.3%	0.2	1	-7	2	-2.4
CC(=O)Nc1ccc(C2=CC(=O)C[C@H](c3ccc(Cl)cc3)C2)cc1	5.5%	0.6	2	12	-5	2.9
O=C1Nc2cc(C(=O)N3CCc4ccccc4C3)ccc2S/C1=C\c1ccccc1	0.0%	-0.4	6	-1	0	-1.5
Cc1cccc(NS(=O)(=O)c2cc(C(=O)OCC(=O)Nc3cc(C)on3)ccc2C)c1	-0.5%	1.4	-1	18	-1	1.2
COCCn1c(=NC(=O)/C=C/c2ccccc2)sc2cc(NC(C)=O)ccc21	-2.7%	0.0	4	16	8	-0.3
O=c1c2cccc3c2c(nn1-c1ccccc1)-c1ccccc1-3	2.0%	0.0	3	-7	25	-1.5
Cc1cccc(Nc2nnc(SCC(=O)NC3CCCc4ccccc43)s2)c1C (stereo not given)	-0.2%	1.4	-4	21	0	0.9
O=C(CC(NS(=O)(=O)c1ccc(Cl)cc1)c1ccco1)NCc1cccnc1 (stereo not given)	3.1%	0.0	-13	-11	-13	-3.6
Cc1ccc(SC[C@H](c2ccccc2)N2CCN(CCc3ccccc3)CCC2=O)cc1	u	2.5	-17	23	-24	3.1
O=C(/C=C/c1ccccc1)CCN1CCOCC1	0.2%	0.5	11	1	0	-3.7
C/C(=N\NC(=O)c1cccc(C)c1)c1ccc(N2CCOCC2)cc1	-1.2%	0.7	3	-3	5	-0.3
CCC(=O)N(c1nnc(SCC(=O)NN2C(=O)NC3(CCC(C)CC3)C2=O)s1)C1CC1 (stereo not given)	0.8%	2.0	7	-6	2	-1.0
CCOC(=O)c1c(-c2ccccc2)oc2ccc(NS(=O)(=O)c3cc(C)c(C)cc3C)cc12	2.8%	-0.4	x	23	x	x
O=C(NC(=S)NCCCN1CCOCC1)c1ccc([N+](=O)[O-])cc1	-1.1%	-0.3	-1	3	-1	2.8
COc1cc(CNCc2ccc(OC)c(OC)c2OC)cc(OC)c1	-1.1%[38.3 µM]	0.1	-7	2	0	-1.2
CCn1ccc(C(=O)NCc2ccc3c(c2)OCO3)n1	-0.9%	0.3	1	7	3	-0.2
CC(C)(C)c1ccc(CC(=O)N2CCC2(C)C(=O)NS(=O)(=O)c2cccc(Cl)c2)cc1 (stereo not given)	-0.7%	-0.3	6	x	10	1.6
CC(=O)CCc1ccccc1	-1.1%	x	8	x	3	-5.2

The final 2 entries of the section above open the next one.
SMILES	PINK1 expr mod	TRPML1 ag	CtBP-E1A blk	TRPML1 inh	Six1-Eya2 inh	D2 agonist
CC(C)(C)c1ccc(CC(=O)N2CCC2(C)C(=O)NS(=O)(=O)c2cccc(Cl)c2)cc1 (stereo not given)	-0.7%	-0.3	6	x	10	1.6
CC(=O)CCc1ccccc1	-1.1%	x	8	x	3	-5.2
CCOc1ccc(-n2c(=O)c3c4c(sc3n(Cc3cc(=O)n5cc(Cl)ccc5n3)c2=O)CCC4)cc1	5.6%	3.3	x	6	x	x
Cc1cc(N2C(=O)C3C4C=CC(C4)C3C2=O)ccc1NC(=O)c1cccs1 (stereo not given)	-2.1%	-0.1	9	-3	3	-0.1
COc1ccc(C(C)(C)C)cc1NC(=O)COC(=O)c1cnc(C)cn1	9.6%[38.3 µM]	-0.1	-6	-5	1	-0.6
O=C(NCC1CCCO1)c1csc2c1CCCCC2 (stereo not given)	x	-0.3	4	6	1	-1.5
Cn1c(SCc2ccccc2[N+](=O)[O-])nnc1-c1cccnc1	0.0%	0.0	-8	-6	-9	-3.4
O=[N+]([O-])c1ccc(Sc2ncccn2)c([N+](=O)[O-])c1	-2.3%	-0.2	-7	13	-11	5.8
Cc1onc(-c2ccccc2Cl)c1C(=O)Nc1c(C)n(C)n(-c2ccccc2)c1=O	x	-0.3	1	-4	3	-0.9
COc1cc(C(=O)CSc2nccn2C)cc(OC)c1OC	0.6%	0.0	2	-16	8	-0.4
CCn1c(O)c(/C=N/N=C2CCCCC2)c2cc(C3=NNC(=O)CC3)ccc21	-0.5%	1.0	-27	-5	u	-2.5
O=C(NCCCN1CCOCC1)c1cc2ccccc2o1	x	0.8	5	3	3	-0.4
CC(=O)N1c2ccc(S(=O)(=O)N(C)c3cc(C)ccc3C)cc2CC1C (stereo not given)	3.4%	0.4	x	20	11	-1.2
CCc1cccc(-n2c(=O)c3cccnc3n2CC(=O)NCc2ccccc2)c1	2.5%	3.3	x	20	x	x
O=C(c1ccc(F)cc1)C1CCN(Cc2ccccc2)CC1	1.6%	-0.7	x	-10	1	-3.7
CCCCSc1ncnc2c1c(-c1ccccc1)cn2-c1cccc(F)c1	2.2%	0.1	x	8	x	x
CCCOC(=O)c1ccc(Oc2c(-c3ccc(OCC)cc3O)n[nH]c2C)cc1	x	0.4	7	29	-9	-2.2
CC1(C)CC(=O)c2sc(NS(=O)(=O)Cc3ccccc3)nc2C1	-0.5%[38.3 µM]	0.9	2	0	4	-1.4
CCNc1nc(-c2ccc(OC(F)F)cc2)c(C)s1	5.7%	0.9	-1	4	-14	-2.6
Cc1ccc(NC(=O)CCN2C(=O)NC3(CCCC3)C2=O)c(C)c1	-1.7%	0.0	x	-7	4	-4.6
Cc1cc(NC(=O)c2cc(F)c(F)cc2Cl)no1	1.0%	-0.1	9	6	2	-4.8
COc1ccc(C)cc1NC(=O)CN1CCN(S(=O)(=O)c2ccc(Br)cc2)CC1	14%&0.0%	0.5&-0.1	-6	11&9	-3	0.1
O=C(CSc1ncc(-c2ccc(Cl)cc2)[nH]1)Nc1ccccc1F	7.7%	3.3	x	18	x	x
O=C(CSc1nc(=O)n2cc(Cl)ccc2n1)Nc1cccc2ccccc12	0.1%	-0.3	-1	15	-22	0.3
COc1ccc(CNC(=O)c2noc3c2CCCC3)cc1	2.2%[38.3 µM]	2.7	4	0	4	-2.1
CC1(C)CC(=O)c2ccc(OCc3ccc([N+](=O)[O-])cc3)cc2O1	1.7%	-0.6	-2	4	-25	-1.8
CCOC(=O)N1CCN(C(=O)c2cc3cc(C)ccc3[nH]2)CC1	1.1%	-0.7	x	6	-2	-1.1

Continuation.
SMILES	PINK1 expr mod	TRPML1 ag	CtBP-E1A blk	TRPML1 inh	Six1-Eya2 inh	D2 agonist
COc1ccc(C(=O)n2nc(-c3ccco3)nc2N)cc1	1.3%	-0.3	-2	2	0	0.5
O=C(Nc1ccncc1)c1ccc(Cl)c(Cl)c1	0.8%	-0.3	-6	3	1	1.2
COc1ccc(S(=O)(=O)N2CC(C(=O)O)Oc3ccc(CC(=O)O)cc32)cc1 (stereo not given)	-1.8%	1.0	3	-20	4	-0.6
CC(=O)N1c2ccc(S(=O)(=O)NCC3CCC(C(=O)Nc4ccc(F)cc4)CC3)cc2CC1C (stereo not given)	-0.7%	-1.0	x	0	x	x
O=C(CN1CCCN(Cc2ccccc2Cl)S1(=O)=O)Nc1ccc2c(c1)OCCO2	1.7%	1.0	x	12	x	x
COc1ccc2ccn(S(=O)(=O)c3ccccc3)c2c1	7.8%	2.9	13	64	6	-0.2
COC(=O)c1[nH]c2ccc(C)cc2c1NC(=O)CN1CCCC(C)(C)C1	0.1%	-0.2	-2	33	-7	-0.4
CCOc1ccc(-c2cccc(NS(=O)(=O)c3cc([N+](=O)[O-])ccc3C)c2)nn1	3.3%	2.2	0	-10	-10	1.7
CCc1c(C)sc(NC(=S)N2CCN(S(C)(=O)=O)CC2)c1C(=O)OC	2.6%	1.6	-4	21	-5	-1.8
CCOc1ccc(NC(=S)NCCN2CCN(Cc3ccccc3)CC2)cc1	-0.3%	x	2	x	-1	-2.6
CC(C)(C)OC(=O)N/N=C/c1c[nH]c2ccccc12	-0.1%	-0.2	11	9	-5	-4.0
COc1ccc(NC(=O)C(C)n2nc(-c3ccc(C)c(C)c3)ccc2=O)cc1OC (stereo not given)	-0.8%	0.2	x	39	x	x
O=C(CNC(=O)c1ccc(F)cc1)N/N=C/c1ccc(O)c([N+](=O)[O-])c1	2.9%	1.1	u	53	-29	-8.0
Cc1ccc(NC(=O)COC(=O)CN2C(=O)c3ccccc3C2=O)cc1S(=O)(=O)N(C)C	-0.7%	1.1	1	-15	-4	0.4
NC(=O)[C@@H]1CCCN1C(=O)c1ccc2oc(CCc3ccccc3)nc2c1	1.5%	0.2	u	-22	3	0.1
O=C(CN1C(=O)c2cccnc2Oc2ccc(Cl)cc21)N1CCOCC1	1.2%	-0.6	10	30	7	-4.8
Cn1c(CSCc2ccc(F)cc2)nnc1SCC(=O)Nc1nccs1	-7.4%[38.3 µM]	-0.3	-7	-12	-6	3.2
CCOC(=O)c1cnc2ccc(OC)cc2c1Nc1ccc2c(c1)OCCO2	1.1%	1.2	-18	53	-25	-1.0
COc1cccc(NC(=O)c2ccc(S(=O)(=O)NCc3cccnc3)cc2)c1	0.4%	-1.5	-17	18	-9	-2.4
O=C1/C(=C/c2ccc3c(c2)OCO3)Oc2cc(OCC(=O)N3CC(O)C[C@H]3C(=O)O)ccc21 (stereo not given in full)	0.9%	x	3	x	0	-3.6

Of the compounds above, these contain a furan ring, fused or not.
SMILES	PINK1 expr mod	TRPML1 ag	CtBP-E1A blk	TRPML1 inh	Six1-Eya2 inh	D2 agonist
O=C(CC(NS(=O)(=O)c1ccc(Cl)cc1)c1ccco1)NCc1cccnc1 (stereo not given)	3.1%	0.0	-13	-11	-13	-3.6
CCOC(=O)c1c(-c2ccccc2)oc2ccc(NS(=O)(=O)c3cc(C)c(C)cc3C)cc12	2.8%	-0.4	x	23	x	x
O=C(NCCCN1CCOCC1)c1cc2ccccc2o1	x	0.8	5	3	3	-0.4
COc1ccc(C(=O)n2nc(-c3ccco3)nc2N)cc1	1.3%	-0.3	-2	2	0	0.5
